Screens deposited in PubChem by Johns Hopkins Ion Channel Center.
KCNQ2 enhance: KCNQ2 (rat) channel potentiation. CHO-K1 KCNQ2, FluxOR thallium flux fluorescence; active compounds read high. O88943. 0.54% of 310,000 active. B-score at 10 µM;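 active means fluorescence ratio B-score at least 3 SD of library B-scores, with initial fluorescence B-score within 3 SD, cut at about 5.3 in these data; same plate scores as AID 2156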;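 further: B-score of peak minus minimum over baseline fluorescence ratio after K+ and Tl+ stimulus; positive B-score means potentiation of KCNQ2 with more thallium influx and brighter signal; only the inactives scoring about 0 or higher are listed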
Target sequence (O88943 whole entry, looked up): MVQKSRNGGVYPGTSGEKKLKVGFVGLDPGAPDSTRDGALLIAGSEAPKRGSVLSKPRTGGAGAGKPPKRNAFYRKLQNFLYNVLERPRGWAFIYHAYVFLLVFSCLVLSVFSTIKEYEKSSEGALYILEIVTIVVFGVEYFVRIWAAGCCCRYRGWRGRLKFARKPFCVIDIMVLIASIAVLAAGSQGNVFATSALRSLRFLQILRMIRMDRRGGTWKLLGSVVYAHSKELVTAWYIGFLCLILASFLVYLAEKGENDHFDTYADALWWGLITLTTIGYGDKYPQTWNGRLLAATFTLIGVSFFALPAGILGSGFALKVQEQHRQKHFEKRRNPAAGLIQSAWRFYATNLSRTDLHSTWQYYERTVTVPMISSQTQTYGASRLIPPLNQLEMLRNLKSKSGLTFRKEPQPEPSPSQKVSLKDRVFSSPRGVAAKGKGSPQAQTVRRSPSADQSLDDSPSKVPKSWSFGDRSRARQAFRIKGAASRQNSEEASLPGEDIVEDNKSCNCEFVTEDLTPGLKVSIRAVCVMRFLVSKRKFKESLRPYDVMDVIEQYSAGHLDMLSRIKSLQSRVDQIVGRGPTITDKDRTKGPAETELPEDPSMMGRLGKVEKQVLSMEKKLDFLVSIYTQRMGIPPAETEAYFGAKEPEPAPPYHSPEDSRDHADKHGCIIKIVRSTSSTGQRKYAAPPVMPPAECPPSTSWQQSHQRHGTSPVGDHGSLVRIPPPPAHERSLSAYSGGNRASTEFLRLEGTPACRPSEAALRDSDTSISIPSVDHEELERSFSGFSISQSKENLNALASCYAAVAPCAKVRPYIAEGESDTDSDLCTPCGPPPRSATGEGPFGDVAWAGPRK
KCNQ2 enhance baseline: also measured in KCNQ2 enhance; calls as there; B-score; compound at 10 µM; measured here: initial fluorescence intensity artifact check;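 brightness before thallium and not channel activity; 0 = typical well and far values either way flag optical interference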
* = called active by the depositor; / = not tested or not shown. This is a subset; the hit share may differ from the screen's.

SMILES	KCNQ2 enhance	KCNQ2 enhance baseline
CCn1c(SCC(=O)N/N=C\c2ccccc2OCC(=O)O)nnc1-c1ccc(Cl)cc1	2.4	0.28
Cc1ccc(C2CC(=O)c3cnc(NC(=O)c4ccco4)nc3C2)cc1 (stereo not given)	2.5	-2.5
COC(=O)c1c(C(=O)OC)c(-c2ccccc2)n2c1CCC2	0.32	2.5
O=C(CSCc1nc2ccccc2[nH]1)Nc1ccc(Oc2ccccc2)cc1	1	0.28
Cc1ccccc1NC1=NC(=S)N(c2ccccc2)C12CCCCC2	5.5*	0.08*
C/C(=N\Nc1ncc(Cl)cc1Cl)c1ccc2c(c1)OCO2	0.57	-0.64
N=c1n(Cc2ccccc2)c2ccccc2n1CC(O)c1ccco1 (stereo not given)	0.66	0.05
Cc1ccc(S(=O)(=O)Nc2ccc3c(c2)OCCO3)c(C)c1NS(C)(=O)=O	0.48	0.06
CCn1c(-c2cccnc2Cl)nc2ccccc21	2.1	1.6
NC(=O)C1CCN(CCC(=O)Nc2ccc(F)c(F)c2)CC1	0.29	1.2
CN(C)S(=O)(=O)c1ccc(N2CCOCC2)c(C(=O)O)c1	0.98	-1.7
Cc1occc1C(=O)N/N=C/c1ccccc1[N+](=O)[O-]	0.64	-1.3
CCOC(=O)N1CCN(c2c(N3CC=C(c4ccccc4)CC3)c(=O)c2=O)CC1	0.81	-0.48
O=C(NCc1ccncc1)C1CCCN(S(=O)(=O)Cc2ccccc2)C1 (stereo not given)	0.7	-0.47
N#Cc1ccc(OCC(=O)N/N=C2/CC(c3ccccc3)Oc3ccccc32)cc1 (stereo not given)	0.54	0.44
CCOC(=O)CCc1c(C)c2ccc(OCC)c(C)c2oc1=O	1.2	-0.97
COC(=O)CCSc1cc([N+](=O)[O-])cc2c1c(C1OCCS1)nn2-c1ccccc1 (stereo not given)	0.22	-2.7
CC(C)/C=C/C(=O)N1CCC(N2CCC(C(=O)N3CCOCC3)CC2)CC1	0.61	-2.1
COc1cccc(OCc2nnc(-c3cccs3)o2)c1	0.01	-1.4
Cc1ccc(-c2csc(Nc3ccc(C(=O)O)cc3)[n+]2Cc2ccccc2)cc1	0.04	-1.5
COc1ccc(S(=O)(=O)N2CCN(Cc3cccc(OC)c3OC)CC2)cc1	0.15	1.1
O=C(COC(=O)c1ccc(NS(=O)(=O)c2cccs2)cc1O)NCc1ccccc1	1.3	-1.1
COc1ccc(Cl)cc1NS(=O)(=O)c1cc(Cl)ccc1OC	2	0.58
N#C/C(=C/c1ccncc1)c1nc2ccccc2s1	0.08	-1.4
COc1ccc(S(=O)(=O)N(Cc2ccc(OC)c(OC)c2)Cc2ccco2)cc1	0.45	-1.4
CN(C)c1ccc(C(=O)/C=C/c2cccnc2)cc1	0.83	0.53
CC(C)(C)NC(=O)[C@@H]1C[C@@H]2CCCC[C@@H]2CN1C[C@@H](O)[C@H](Cc1ccccc1)NC(=O)[C@H](CC(N)=O)NC(=O)c1ccc2ccccc2n1	0.74	/
Cc1ccc(C)c(N(CC(N)=O)S(C)(=O)=O)c1	0.38	1.6
CCC(C)OC1OC(CO)C(O)C(O)C1NC(C)=O (stereo not given)	0.84	-1.7
Cc1cccc2c(=O)oc(-c3ccccc3Cl)nc12	0.02	-0.35
CCOC(=O)NC(NC(=S)Nc1ccc(OCC)cc1)C(Cl)(Cl)Cl (stereo not given)	0.49	-0.67
CCOC(=O)N1CCN(C(=S)NC(=O)c2nn(C)cc2Br)CC1	0.84	0.73
CCn1c(COc2ccc(Cl)c(C)c2)nnc1SCC(=O)N1CCCC1	1.3	-1.2
O=C(NC1CCCCC1)C1CCCN(c2nnnn2-c2ccccc2)C1 (stereo not given)	0.11	-1.7
S=C1NCCOCCOCCOCCNC(=S)N2CCOCCOCCN1CCOCCOCC2	1	0
Cc1cc(C(=O)c2ccc(C(C)(C)C)cc2)c(NC(=O)CCl)s1	0.85	0.48
COc1ccc(NC(=O)c2ccc3ccccc3c2)cc1	0.08	-0.55
O=C(CSCc1ccc(F)cc1)NCc1cccs1	0.27	2.7
Cc1cc(C)nc(NC(=O)NS(=O)(=O)Nc2ccc(Br)cn2)n1	1	0.24
Cc1ccc(C2=NC(C)(C)NC2=O)cc1	0.36	0.2
O=C(c1cccc(F)c1)N1CCCC(C(=O)N2CCCCCC2)C1 (stereo not given)	0.03	-0.69
Cc1[nH]c2ccccc2c1-c1ccc(Cl)nn1	1.1	-0.62
COc1ccc(/C=N/OCC(=O)N=Nc2c(O)[nH]c3ccc(Br)cc23)cc1OC	1	0.63
N#CC1(c2ccccc2)CCC(=O)N1c1ccccc1 (stereo not given)	0.17	-0.99
Cc1nc(-c2ccc(C(=O)Nc3cccc(Br)c3)cc2)cs1	0.01	-1.5
COc1ccc(OC)c(C(=O)c2coc3ccc(O)c(CN(C)C)c23)c1	1.2	-0.97
Cc1ccc2nc3c(c(C(=O)OC4CCOC4=O)c2c1)CCCC3 (stereo not given)	0.99	5
CC1CCCC(C)N1C(=O)COc1ccccc1F (stereo not given)	0.62	-0.34
Cc1cc(C)cc(NC(=S)N(CCN(C)C)Cc2cccs2)c1	0.55	-1.8
COc1ccc(-c2cc(C(F)(F)F)nc(SCC(N)=O)n2)cc1	0.63	-0.07

(cont.)
SMILES	KCNQ2 enhance	KCNQ2 enhance baseline
Cc1ccc(S(=O)(=O)N2CCN(C(=O)COC(=O)CCOc3cc(C)ccc3C)CC2)cc1	0.09	-0.02
CCSc1ncc(C#N)c(=O)[nH]1	0.54	0.26
Cc1cccc(C)c1NC(=O)CNC(=O)CNC(=O)c1ccc2c(c1)OCO2	0.53	-0.28
Cc1cc(N/N=C/c2cccc([N+](=O)[O-])c2)nc(-n2nc(C)cc2C)n1	1.6	0.01
Cc1cccc(C(C)C)c1NC(=O)Cc1ccc(S(=O)(=O)N2CCOCC2)s1	4.7	0.37
Cc1c(OCC(=O)NCc2ccccn2)ccc2c(-c3ccccc3)cc(=O)oc12	1	-0.74
COc1ccc(CCN2CC(C(=O)Nc3ccc4c(c3)OCO4)CC2=O)cc1OC (stereo not given)	2.3	-1.6
COc1ccc(S(=O)(=O)N(C)C)cc1NC(=O)COC(=O)c1nc2nccc(C)n2n1	1.2	-0.24
Cc1cc(Nc2cccc(Br)c2)c2ccccc2n1	0.14	-1.7
CCOC(=O)c1c(S(=O)(=O)Nc2ccc(F)cc2Cl)c(C)n(C)c1C	0.89	1.4
COc1ccc(-c2csc(NC(=S)NC(=O)c3ccco3)n2)cc1	5.1	0.91
CCc1cc(=O)oc2cc(OCC(=O)N3CC[C@@]4(O)CCCC[C@H]4C3)ccc12	0.69	0.52
COc1ccc(CC(C)N2CCN(Cc3ccccc3)CC2)c(OC)c1 (stereo not given)	0.01	0.12
COc1ccc(/C=N\NC(=O)c2cccc(Br)c2)c(OC)c1	0.11	0.23
CCn1nnnc1NCc1ccc(OCc2c(F)cccc2Cl)c(OC)c1	0.24	0.58
CCOc1ncccc1C(=O)OCC(=O)Nc1cccc(C(C)=O)c1	1.2	0.28
CCOC(=O)/C=C(\C)N1N=C(c2ccccc2)CC1c1ccccc1 (stereo not given)	0.58	-0.48
COc1ccc(-c2ccnc3nc(Sc4ncc(C(F)(F)F)cc4Cl)nn23)cc1	1.3	1.2
Cc1cc(=O)oc2c(C)c(OCC(=O)NC3CCN(Cc4ccccc4)CC3)ccc12	2.4	-0.29
CCOC(=O)c1c(NC(=O)COC(=O)c2nc(Cl)ccc2Cl)sc(C(=O)NC)c1C	2.5	1.7
COc1ccccc1Oc1nnnn1-c1ccc(C(N)=O)cc1	0.06	0.26
Cc1ccc(C2=CSC3=NCCN23)c(C)c1	0.61	0.2
CCC(=O)NC(O)C(=O)c1ccc(C)cc1 (stereo not given)	1.7	1.4
Cc1nonc1OCCNCCNc1ccccc1[N+](=O)[O-]	1.9	-0.92
CSc1ccc(CNCc2ccco2)cc1	1.8	-2.9
O=C(CNC(=O)c1ccccc1)OCc1nnc(-c2ccc(Cl)cc2)o1	0.18	-0.17
Cc1ccc(C(=O)NC(C)c2ccncc2)o1 (stereo not given)	1.3	0.09
Fc1ccccc1NC(=S)NC1CCCC1	3.8	-3.3
CCCC(c1nnnn1C(C)(C)C)N1CCN(Cc2ccccc2)CC1 (stereo not given)	0.33	1.7
O=C(O)COc1ccccc1/C=C1\SC(=S)N(/N=C/c2ccccc2O)C1=O	1.1	-5.7
O=[N+]([O-])c1cccnc1Sc1ccc(Cl)cc1	0.55	0.82
CC(C)CC1CCCCC1OC(=O)C[N+]1(C)CCCCC1 (stereo not given)	0.67	-0.31
CC(C)NC(=O)NC(=O)COC(=O)CCOc1ccccc1	1.3	-0.39
O=C(CSc1nnnn1-c1ccc(O)cc1)c1cc2ccccc2o1	0.19	-0.73
O=C(NCCOc1ccccc1)c1n[nH]c(=O)c2ccccc12	0.14	1
Cn1c(CNC(=O)c2ccccc2F)nnc1SCC(=O)NCc1ccccc1	0.2	0
CC(=O)Nc1ccc(CN2CCN(CCc3ccccc3)C(CCO)C2)cc1 (stereo not given)	0.01	0
O=C(N=Nc1c(O)n(Cc2ccccc2)c2ccccc12)c1cc2ccccc2cc1O	0.29	2.3
CCN(CC)CCN(Cc1cc2cc(C)ccc2[nH]c1=O)C(=S)NCc1ccco1	3.1	-0.92
Cc1ccc(NC(=O)CSc2nnc(-c3ccncc3)n2N)cc1C	0.69	-0.43
CCCCn1c(N)c(N(CCC(C)C)C(=O)c2ccc3c(c2)OCCO3)c(=O)[nH]c1=O	0.29	0.08
COc1ccc2c(c1)c(C(C)=O)c(C)n2-c1ccc(C(C)=O)cc1	0.18	0.85
CCC(C)c1ccccc1OCCCCN1CCCC1 (stereo not given)	1.3	-0.13
COc1ccc(OC)c(/C=N/NC(=O)CNC(=O)c2ccc(S(=O)(=O)N3CCCC3)cc2)c1	1.9	0.42
O=C(COC(=O)COc1ccccc1Cc1ccccc1)Nc1cccnc1Cl	0.93	-2
Cc1ccc(C)c(NC(=S)c2nc3ccccc3s2)c1	1.1	0.23
Cc1ccccc1C(=O)NC1CCN(C(=O)Nc2ccccc2Cl)CC1	0.83	-0.75
CC(NC(=O)C(=O)N/N=C/c1ccc(Cl)cc1)c1ccccc1 (stereo not given)	0.43	0.61
N#Cc1c(-c2ccccc2)nc(N2CCCCCC2)[nH]c1=O	0.98	0.03
CC(C)CC(=O)Nc1nc2ccc(S(C)(=O)=O)cc2s1	0.08	1.1

2 of the compounds above, with bars between the fields:
compound | KCNQ2 enhance | KCNQ2 enhance baseline
COc1ccc2c(c1)c(C(C)=O)c(C)n2-c1ccc(C(C)=O)cc1 | 0.18 | 0.85
CCC(C)c1ccccc1OCCCCN1CCCC1 (stereo not given) | 1.3 | -0.13

The list continues.
SMILES	KCNQ2 enhance	KCNQ2 enhance baseline
CCn1ccnc1CN1CCC(CO)(CCOc2ccccc2)CC1	0.6	0.2
CCCn1c(N)c(C(=O)CSc2nnc(Cc3ccccc3)o2)c(=O)n(C)c1=O	1.8	-0.99
O=C(c1cnccn1)N1CCN(c2ccccc2)CC1	0.1	-0.02
COC1CC(C)NC(=S)N1 (stereo not given)	1.2	0.34
CC(=O)OC(C)(C)C#CCN1CCCC1	0.19	0.33
O=C(N/N=C/c1ccc2c(c1)OCO2)C1COc2ccccc2O1 (stereo not given)	0.76	0.5
O=c1[nH]c(CSc2ncc(-c3ccc(F)cc3)n2Cc2ccco2)nc2ccccc12	0.25	-0.48
O=C(CCC1CCCN(c2ncccn2)C1)NCc1ccc(F)c(F)c1 (stereo not given)	1.3	0.98
COc1ccc(C(=O)Nc2nc(C)c(C)s2)cc1OC	2.5	-0.7
COC(=O)C1=C(C)NC(=O)NC1c1ccc(N2CCC(c3ccccc3)=N2)cc1 (stereo not given)	1.2	-1.9
Cc1ccc(C(=O)OCC(=O)c2c[nH]c3ccccc23)cc1	0.98	-0.19
O=C(c1ccco1)N1CCN(Cc2cccc(C(F)(F)F)c2)CC1	0.75	-0.54
CCOc1ccc(N(CC)C(=O)CCNC(=O)Cn2ccc3ccccc3c2=O)cc1	0.44	-1.1
COc1ccc(CN2C3CCCC2CC(NC(=O)/C=C/c2ccccc2)C3)cc1 (stereo not given)	3.4	-0.88
O=C(OC1CCOC1=O)c1cc(-c2cccs2)nc2ccccc12 (stereo not given)	0.67	-0.05
Cc1ccc(-c2nc(CS(=O)CC(=O)NCCN3CCCCCC3)c(C)o2)cc1 (stereo not given)	1.2	0.36
CCOc1ccccc1NC(=O)CCC(=O)Nc1ccc2nc(N3CCN(C)CC3)cc(C)c2c1	0.03	-2
Cc1cc(-n2c(C)cc(C(=O)CSc3nc4ccccc4c(=O)n3Cc3ccco3)c2C)no1	0.39	-0.2
O=C(Nc1cc(S(=O)(=O)N2CCOCC2)ccc1O)c1ccco1	0.57	1.1

Structures shown so far with a furan ring, fused or not:
SMILES	KCNQ2 enhance	KCNQ2 enhance baseline
Cc1ccc(C2CC(=O)c3cnc(NC(=O)c4ccco4)nc3C2)cc1 (stereo not given)	2.5	-2.5
N=c1n(Cc2ccccc2)c2ccccc2n1CC(O)c1ccco1 (stereo not given)	0.66	0.05
Cc1occc1C(=O)N/N=C/c1ccccc1[N+](=O)[O-]	0.64	-1.3
COc1ccc(S(=O)(=O)N(Cc2ccc(OC)c(OC)c2)Cc2ccco2)cc1	0.45	-1.4
COc1ccc(OC)c(C(=O)c2coc3ccc(O)c(CN(C)C)c23)c1	1.2	-0.97
COc1ccc(-c2csc(NC(=S)NC(=O)c3ccco3)n2)cc1	5.1	0.91
CSc1ccc(CNCc2ccco2)cc1	1.8	-2.9
Cc1ccc(C(=O)NC(C)c2ccncc2)o1 (stereo not given)	1.3	0.09
O=C(CSc1nnnn1-c1ccc(O)cc1)c1cc2ccccc2o1	0.19	-0.73
CCN(CC)CCN(Cc1cc2cc(C)ccc2[nH]c1=O)C(=S)NCc1ccco1	3.1	-0.92
O=c1[nH]c(CSc2ncc(-c3ccc(F)cc3)n2Cc2ccco2)nc2ccccc12	0.25	-0.48
O=C(c1ccco1)N1CCN(Cc2cccc(C(F)(F)F)c2)CC1	0.75	-0.54
Cc1cc(-n2c(C)cc(C(=O)CSc3nc4ccccc4c(=O)n3Cc3ccco3)c2C)no1	0.39	-0.2
O=C(Nc1cc(S(=O)(=O)N2CCOCC2)ccc1O)c1ccco1	0.57	1.1
